UCH37 inh – inhibitors of human UCH37 deubiquitinase, primary screen, biochemical, Ub-AMC cleavage, fluorescence. Ubiquitin carboxyl-terminal hydrolase isozyme L5 (Homo sapiens), Q9Y5K5. purified proteasome/UCH37. inhibition, % (test concentration not listed). actives 0.33% (n = 330,000). AID 588478, 2011;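 active means mean of two replicates above 20%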;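 further: 0% = compound-free wells with enzyme and 100% = wells lacking proteasome; stock transfer was 100 nL into about 20 µL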
Target sequence (Q9Y5K5 whole entry, looked up): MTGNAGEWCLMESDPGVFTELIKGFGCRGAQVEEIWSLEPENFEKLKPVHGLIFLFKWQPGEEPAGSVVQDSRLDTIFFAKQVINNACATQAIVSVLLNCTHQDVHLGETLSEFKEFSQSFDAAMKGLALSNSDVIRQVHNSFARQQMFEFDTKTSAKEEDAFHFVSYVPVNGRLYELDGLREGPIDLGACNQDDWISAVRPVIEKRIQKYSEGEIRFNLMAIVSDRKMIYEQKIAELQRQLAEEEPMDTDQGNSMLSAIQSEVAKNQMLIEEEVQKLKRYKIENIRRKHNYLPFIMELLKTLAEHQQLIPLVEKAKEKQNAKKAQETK
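Assay system: Proteasome-bound UCH37. Buffer or medium: pH 7.4 Tris-HCl (50 mM) with ovalbumin, ATP-MgCl2, DTT. Incubation: 30 min preincubation with enzyme, 25 min cleavage at room temperature. Measured by: fluorescence, ex 355 nm, em 460 nm. Read-out basis: percent inhibition. Control set: wells without proteasome as full block, compound-free enzyme plus substrate as uninhibited.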
Ecoli growth – E. coli growth inhibition, primary screen, OD600 | Escherichia coli growth, 23 h; hits give low values | actives 0.21% (n = 330,000) | OD600 absorbance (concentration not given with the values) | AID 1053175, 2014;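 active means OD600 absorbance below the run mean of sample wells minus 3.6 SD, in any replicate, cut at about 0.56 in these data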;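 further: stock transfer was 300 nL into about 60 µL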
An asterisk follows results filed as active.

SMILES | UCH37 inh | Ecoli growth
COc1cccc2c1OCCC2=NNC(=O)COc1ccc(C)cc1 | 0.1 | 0.72
CC(C)(C)C(=O)Nc1ccc(C(=O)NN=CC2CC3C=CC2C3)cc1 (stereo unspecified) | 0.4 | 0.66
Cc1[nH]n(-c2ccccc2)c(=O)c1C=NNC(=O)C(C)C | 4.0 | 0.68
COc1ccc(C=Nn2c(C)nc3ccccc3c2=O)cc1 | 3.8 | 0.7
CC(C)(C)C(=O)C=c1sc(=Cc2ccc(-c3ccc([N+](=O)[O-])cc3)o2)c(=O)n1CC(=O)NC(N)=O | 11 | 0.72
CCc1ccc(N2CC(C(=O)NN=Cc3cc([N+](=O)[O-])ccc3O)CC2=O)cc1 (stereo unspecified) | 1.4 | 0.67
Cc1nc(-c2coc3cc(C)c(N=O)c(O)c3c2=NN)cs1 | 7.2 | 0.69
CC(=NNS(=O)(=O)c1ccc(F)cc1)c1ccncc1 | 3.4 | 0.65
Cc1nnc(NN=Cc2ccc(O)c([N+](=O)[O-])c2)[nH]c1=O | 17 | 0.69
CCOC(=O)C1=C(N)n2c(sc(=Cc3ccco3)c2=O)=C(C(=O)OC)C1c1ccco1 (stereo unspecified) | 2.4 | 0.65
O=C(NN=C/C=C/c1ccc2c(c1)OCO2)C1COc2ccccc2O1 (stereo unspecified) | -9.2 | 0.7
O=C(Nc1ccccc1Cl)C1Cc2ccccc2OC1=NO (stereo unspecified) | 4.0 | 0.64
O=C(ON=C(c1ccccc1)c1ccncc1)c1ccc(F)cc1 | 0.7 | 0.67
O=C(CCCOc1ccc(Cl)cc1Cl)NN=Cc1cccc([N+](=O)[O-])c1 | 0.9 | 0.77
O=C(NN=C(CC(=O)c1cccs1)C(F)(F)F)c1ccncc1 | 8.6 | 0.66
Cc1cc(C(=O)NN=Cc2cccc([N+](=O)[O-])c2O)n[nH]1 | 4.6 | 0.66
CCOc1cc([N+](=O)[O-])cc(C=NNC(=O)c2c(-c3ccccc3)noc2C)c1O | 16 | 0.7
O=C(CCC(=O)NN=Cc1ccco1)NN=Cc1ccco1 | 2.3 | 0.69
COc1ccc(OCC(=O)NN=Cc2ccco2)cc1 | 3.1 | 0.65
COc1cc(C=NNc2nc3ccccc3s2)ccc1OC(=O)c1ccccc1F | -4.1 | 0.74
CC(=NNS(=O)(=O)c1ccccc1)c1ccc(Cl)cc1 | -0.4 | 0.68
Cc1cccc(NCC(=O)NN=Cc2ccc(Br)cc2)c1 | 3.6 | 0.71
Cc1cccc(NC(=S)NC(=NS(=O)(=O)c2ccccc2)c2ccccc2)c1 | 4.0 | 0.74
COc1cc(C=c2sc3nc(=O)c(-c4ccccc4)nn3c2=O)ccc1OCCC(C)C | 3.6 | 0.69
O=C(NN=Cc1ccc(OC(=O)c2ccccc2Br)cc1)c1ccccn1 | -9.2 | 0.7

Other records:
SMILES | UCH37 inh | Ecoli growth
COc1ccc(C=NNC(=O)CNC(=O)/C=C/c2ccc(OC)cc2)cc1 | -3.7 | 0.65
COc1ccc(O)c(C=NN=C2C(=O)Nc3ccccc32)c1 | 4.2 | 0.61
CC(=NNC(=O)c1cc(C(C)(C)C)[nH]n1)C12CC3CC(CC(C3)C1)C2 | 0.1 | 0.7
NC(=NOC(=O)c1ccc([N+](=O)[O-])cc1)c1ccc(Br)cc1 | 6.2 | 0.69
CCOc1c(Cl)cc(C=NO)cc1OC | 5.4 | 0.73
COc1cccc(C=NNC(=O)c2c(-c3ccccc3)noc2C)c1OC | -26 | 0.68
Cc1cc(C)nc(SCc2ccc(C(=O)NN=Cc3ccncc3)cc2)n1 | 0.6 | 0.66
C(=NN1CCN(C2c3ccccc3-c3ccccc32)CC1)c1ccncc1 | 1.1 | 0.75
CC(=NOCC(=O)Nn1c(C)nc2ccccc2c1=O)c1ccccc1 | 1.9 | 0.68
O=C(NN=Cc1ccc(Br)cc1)c1cc[n+](Cc2ccccc2)cc1 | 14 | 0.69
O=C(COc1ccccc1[N+](=O)[O-])NN=Cc1ccccn1 | 4.6 | 0.67
Cc1nn(Cc2ccc(Cl)cc2Cl)c(Cl)c1C=NNC(=O)CNc1cccc(C(F)(F)F)c1 | 5.1 | 0.7
NC(N)=NN=Cc1ccc(OCc2ccc(Cl)cc2Cl)cc1 | 4.7 | 0.048*
CC(C)c1ccc(C=NNC(=O)CC(=O)NCc2ccccc2)cc1 | 4.0 | 0.68
Oc1ccc(C=NNc2nn3cnnc3c3ccccc23)cc1 | 11 | 0.68
Cc1nn(-c2ccccc2)c2c1C(=NO)CC(C)(C)C2 | 1.2 | 0.65
Cc1ccc(C=NNC(=O)Cn2cnc3ccccc32)o1 | 3.5 | 0.68
CON=C(CCC(=O)O)c1cccs1 | 1.5 | 0.7
Cc1cc(C)nc(N=C(N)Nc2ccc3c(c2)OCCO3)n1 | 0.1 | 0.66
Cc1cc(C)cc(Oc2ccccc2C=NO)c1 | 5.1 | 0.74
COc1ccccc1C=NNC(=O)c1ccc(COc2ccc(C)c(C)c2)o1 | 2.2 | 0.64
CC12CCC(CC1=NO)C2(C)C (stereo unspecified) | 0.8 | 0.71
CCOc1ccc(C=NNC(=O)C(=O)N2CCCCCC2)c2ccccc12 | -7.8 | 0.67
Cc1cc(=O)[nH]c(NN=Cc2ccc(-c3ccc(F)cc3)o2)n1 | -52 | 0.68
Cc1onc(-c2ccc(Cl)cc2Cl)c1-c1csc(NN=Cc2ccccc2)n1 | -13 | 0.65

Three compounds already listed, ordered by molecular weight, low to high:
SMILES | UCH37 inh | Ecoli growth
Oc1ccc(C=NNc2nn3cnnc3c3ccccc23)cc1 | 11 | 0.68
COc1ccc(C=NNC(=O)CNC(=O)/C=C/c2ccc(OC)cc2)cc1 | -3.7 | 0.65
Cc1cc(C)nc(SCc2ccc(C(=O)NN=Cc3ccncc3)cc2)n1 | 0.6 | 0.66

The listing continues:
SMILES | UCH37 inh | Ecoli growth
Cc1ccccc1C=Nn1c(C2CCCCC2)n[nH]c1=S | 3.9 | 0.69
COc1ccc(NCC(=O)NN=Cc2cc([N+](=O)[O-])ccc2N2CCCC2)cc1 | 9.0 | 0.7
CC(=O)C(=NNc1cccc(Cl)c1)N1CCOCC1 | 12 | 0.67
CCOC(=O)c1ccc(NC(=NS(=O)(=O)c2ccc(F)cc2F)c2ccccc2)cc1 | 5.9 | 0.71
COc1ccc(C(=O)Nc2ccccc2C(=O)NN=Cc2cccc3ccccc23)cc1 | 1.9 | 0.75
COc1cc(C(=O)NCC(=O)NN=Cc2ccccn2)cc(OC)c1OC | 2.3 | 0.68
O=C(CNC(=O)c1cccc(Br)c1)NN=Cc1cc(Br)cc(Br)c1O | -0.4 | 0.68
Nc1nc(-c2ccccc2)cn1N=Cc1ccccc1 | 1.2 | 0.65
COc1ccccc1C(=O)N/C(=N\c1nc(C)cc(C)n1)Nc1ccccc1 | 4.4 | 0.68
O=C(NN=Cc1ccncc1)c1cccc(S(=O)(=O)N2CCCC2)c1 | 5.0 | 0.69
O=C1CSC(=NN=Cc2ccco2)N1c1ccccc1 | 5.9 | 0.62
O=C(CN1c2ccccc2Sc2ccccc21)NN=Cc1ccc([N+](=O)[O-])cc1 | 8.5 | 0.65
O=C(CSc1nnc(-c2ccccc2)n1-c1ccc(Cl)cc1)NN=Cc1ccccc1C(=O)O | 1.1 | 0.73
Cc1c(C=NNC(=O)c2sc3ccccc3c2Cl)cnn1C | 3.5 | 0.69
CC(=NNC(=O)c1cccs1)c1c(C)[nH]n(-c2nc3ccccc3s2)c1=O | -4.0 | 0.69
Oc1cccc(C=NNc2nncc(-c3ccccc3)n2)c1 | 4.4 | 0.69
O=C(CCn1cnc2ccccc21)NN=Cc1ccc(O)cc1 | 3.9 | 0.73
O=C(NN=C1CCS(=O)(=O)c2ccc(F)cc21)c1ccc([N+](=O)[O-])cc1 | 4.1 | 0.62
CC(C)NC(=S)NN=C1CCCCC1C1CCCCC1 (stereo unspecified) | 4.3 | 0.68
CC(=NNC(=O)c1cccc(S(=O)(=O)N2CCCC2)c1)c1cccs1 | 3.2 | 0.71
C(/C=C/c1ccccc1)=NNc1nncc(-c2ccccc2)n1 | 9.8 | 0.66
CCN(CC)c1ccc(C=NNC(=O)c2c(Cl)c(C)nn2C)cc1 | -36 | 0.65
COc1ccccc1C=NNC(=O)c1ccc(NC(=O)c2cccc([N+](=O)[O-])c2)cc1 | 4.4 | 0.65
Oc1ccc(C=NN2CCOCC2)c(O)c1O | 1.8 | 0.73
O=C(NN=Cc1cc2c(cc1Br)OCO2)C1COc2ccccc2O1 (stereo unspecified) | 1.3 | 0.71

Going on with the list:
SMILES | UCH37 inh | Ecoli growth
CC(C)NC(=S)NN=Cc1cccs1 | 8.4 | 0.73
COc1cc(C=NNc2nc(=O)[nH]nc2C)cc(OC)c1O | 15 | 0.67
CCOc1cc(C=NNC(=O)CSc2cccc3cccnc23)ccc1O | -4.2 | 0.65
CC(=NOCC(=O)Nc1nc2ccccc2s1)c1ccccc1 | 0.3 | 0.64
C=CCN1C(=O)C(Cc2cccc(Cl)c2)SC1=NN=Cc1ccco1 (stereo unspecified) | -2.1 | 0.67
CC(=NN=C(C)c1cccs1)c1cccs1 | 3.6 | 0.65
COc1cc(C=NN2CCN(Cc3ccc(C)cc3)CC2)cc(OC)c1O | 0.4 | 0.71
O=C(CNC(=O)c1cccc(F)c1)NN=Cc1cc(Br)ccc1OC(=O)/C=C/c1ccco1 | 4.5 | 0.74
CC(=NNC(N)=S)C1(C)CC2(CC(C)(C)OC2=O)C(=O)O1 (stereo unspecified) | 2.5 | 0.7
Cc1ccc(Cn2cc(C=NNc3ccc([N+](=O)[O-])cn3)c3ccccc32)cc1 | 9.8 | 0.74
Cc1[nH]c(=O)[nH]c1CN1CCCCC1 | 0.8 | 0.66
ON=Cc1cc2ccccc2n1Cc1ccccc1F | -1.6 | 0.67
C/C(O)=C/c1nc2ccccc2oc1=O | 3.3 | 0.67
CCOC(=O)C=c1sc(=Cc2ccc(C(F)(F)F)cc2)c(=O)n1CC(=O)NCc1ccco1 | -24 | 0.69
Cc1cc(C(=O)NN=Cc2c[nH]c3ccccc23)c(C)o1 | 5.9 | 0.7
COc1ccc(OC)c(C=Nn2c(C)nc3ccccc3c2=O)c1 | -18 | 0.67
CCCC=NNC(=O)c1cc(-c2ccccc2)nc2ccccc12 | 1.7 | 0.67
COc1cccc(C=NNC(=O)CSc2ccccc2C)c1OC | -0.5 | 0.69
CN(N=Cc1ccc(Br)o1)C1=NS(=O)(=O)c2ccccc21 | -70 | 0.71
COc1cccc2c(NN=Cc3ccc(O)c(O)c3)cc(C)nc12 | -42 | 0.71
NC(=NOC(=O)c1ccc2ccccc2c1)c1cccc([N+](=O)[O-])c1 | 4.8 | 0.74
CC(=NO)C(C)(C)Nc1ccc(Cl)cc1 | 2.4 | 0.62
Cc1ccccc1NCC(=O)NN=Cc1ccc([N+](=O)[O-])s1 | 6.8 | 0.67
C#CCOc1ccc(Cl)cc1C=NO | -0.3 | 0.68
O=C(NN=Cc1c[nH]c2ccccc12)c1cccc(O)c1 | 6.7 | 0.66

Single entries from above:
UCH37 inh with `COc1cccc2c1OCCC2=NNC(=O)COc1ccc(C)cc1` = 0.1
Ecoli growth with `C(=NN1CCN(C2c3ccccc3-c3ccccc32)CC1)c1ccncc1` = 0.75
UCH37 inh with `COc1ccc(C=NNC(=O)CNC(=O)/C=C/c2ccc(OC)cc2)cc1` = -3.7
UCH37 inh with `COc1ccc(OCC(=O)NN=Cc2ccco2)cc1` = 3.1

Further entries follow.
SMILES | UCH37 inh | Ecoli growth
C=CCn1c(=C2C(=O)N(CC)C(=S)N2C)sc(=C2Sc3cc(OC)ccc3N2C)c1=O | 3.1 | 0.7
O=C(Cn1cncn1)NN=Cc1ccncc1 | 1.6 | 0.66
O=C(Cc1nnc(NC(=O)c2ccccc2)s1)NN=Cc1ccc(O)c(O)c1 | 1.5 | 0.64
Cc1nc(N=CN(C)C)sc1C(=O)Nc1ccccc1 | 13 | 0.7
COc1cc(C=Nn2c(-c3n[nH]c4c3CCC4)n[nH]c2=S)cc(OC)c1O | 2.0 | 0.67
Cc1ccc2c(c1Br)C(=NN1C(=O)c3ccccc3C1=O)C(=O)N2 | -1.2 | 0.72
O=c1c2ccccc2nc(NN=Cc2c(O)ccc3ccccc23)n1O | -3.9 | 0.68
COc1ccc(C(=O)NN=Cc2coc3ccc(Cl)cc3c2=O)cc1 | -8.5 | 0.67
COc1ccc(C=NNC(=O)Cc2csc(Nc3cccc(C(F)(F)F)c3)n2)c(OC)c1 | -2.5 | 0.75
CC(=NNC(=O)c1ccccc1)c1ccccc1F | 6.2 | 0.73
O=C(NN=Cc1cccnc1)C1CCCN(S(=O)(=O)c2ccccc2)C1 (stereo unspecified) | 1.9 | 0.67
O=[N+]([O-])c1cccc(NN=Cc2cccc(O)c2O)c1 | 4.2 | 0.69
Cc1ccc(C=NNC(=O)c2cc3ccccc3cc2O)o1 | 5.1 | 0.66
Oc1ccc(C(Cc2ccccn2)=NNc2ccccc2)c(O)c1 | 1.7 | 0.66

Entries of single compounds from above.
O=C(Cc1nnc(NC(=O)c2ccccc2)s1)NN=Cc1ccc(O)c(O)c1 is listed as UCH37 inh: 1.5; Ecoli growth: 0.64
C=CCn1c(=C2C(=O)N(CC)C(=S)N2C)sc(=C2Sc3cc(OC)ccc3N2C)c1=O is listed as UCH37 inh: 3.1; Ecoli growth: 0.7
Cc1ccc(C=NNC(=O)c2cc3ccccc3cc2O)o1 is listed as UCH37 inh: 5.1; Ecoli growth: 0.66

This is a subset; the hit share may differ from the screen's.
